Assay outcomes (PubChem)
miR-21 FLuc: miR-21 reporter, rising signal; HeLa miR-21 FLuc reporter, luciferase, 48 h; AID 2288; Potency, µM (doses to about 38.3 µM), without a hit: at the top dose reporter change, positive = more light; 340,000 tested, under 10 active; active = well fitted rising curve with a large enough effect; inconclusive = small, poorly fitted or top-dose-only effect; inactive = no such curve, though single readings can be large or run the other way;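 also: % of control where 0% means no effect; miR-21 action dims this reporter so a rising signal means less miR-21 action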
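Using DMEM plus 10% FBS, HeLa miR-21-FLuc cells are incubated with test compounds (final up to about 40uM) for 48 hours; firefly luciferase signal is then imaged following reagent-mediated lysis.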
Rango complex inh: inhibitors of Rango-importin beta complex formation; Q14974; Rango CFP/YFP FRET sensor + importin beta, 45 min; Potency, µM (doses to about 92.2 µM), without a hit: at the highest dose inhibition of complex formation; 340,000 compounds, 0.031% hits; active = rising FRET ratio curve, often small or poorly fitted; inconclusive = mostly compound fluorescence or quenching in the first reads; inactive = flat curves in all reads;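 also: potency is read from the fitted curve at half-maximal effect; 0% = DMSO wells and 100% = buffer wells lacking importin beta; nearly all actives have a fitted effect of over 15% in size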
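FRET biosensor Rango (snurportin 1 IBB between N-terminal EYFP and C-terminal Cerulean), 50 nM in PBS/1 mM DTT/0.02% Tween-20/0.1% BSA, preincubated 5 min RT with compound; 0.125 microM importin beta added, 45 min RT, CFP/YFP FRET ratio read.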
Rango release inh: inhibitors of RanGTP-induced Rango-importin beta complex dissociation | Biochemical FRET Rango-importin beta, RanGTP-induced dissociation | O95149+P62826 | AID 540253 | 340,000 compounds, 0.071% hits | Potency, µM (series often up to 46.1 µM), without a hit: at the top dose activity change, negative = inhibition; active means falling FRET ratio curve, often poorly fitted, with flat reads before Ran was added; inconclusive means other falling curves, or compound fluorescence or quenching; inactive means flat or rising ratio curve;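 also: potency is read from the fitted curve at half-maximal effect; % of control where 0% means no effect; nearly all actives have a fitted effect of over 45% in size; -100% = wells without RanGTP and RCC1; the record marks most hits as doubtful in a second field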
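Compounds preincubate 5 min with complex of recombinant Rango and importin beta in PBS with 1 mM DTT. Ran (0.6 uM) loaded with 2 mM GTP plus 0.2 uM RCC1 starts dissociation; FRET is recorded 45 min later.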
GLA inh pH 4.5: inhibitors of human alpha-galactosidase A at pH 4.5 | purified enzyme, 4-MU-alpha-Gal fluorescence, pH 4.5 | activity change, negative = inhibition, % at 105 µM | 230,000 tested, under 10 active | AID 1467; inconclusive = small, poorly fitted or top-dose-only inhibition, or a rising curve; inactive = flat fitted curve, though single readings scatter; no compound was filed as active;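 also: 0% = full activity with enzyme and -100% = basal without enzyme; dose as in the result columns while the protocol names 77 µM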
Target sequence (P06280 whole entry, looked up): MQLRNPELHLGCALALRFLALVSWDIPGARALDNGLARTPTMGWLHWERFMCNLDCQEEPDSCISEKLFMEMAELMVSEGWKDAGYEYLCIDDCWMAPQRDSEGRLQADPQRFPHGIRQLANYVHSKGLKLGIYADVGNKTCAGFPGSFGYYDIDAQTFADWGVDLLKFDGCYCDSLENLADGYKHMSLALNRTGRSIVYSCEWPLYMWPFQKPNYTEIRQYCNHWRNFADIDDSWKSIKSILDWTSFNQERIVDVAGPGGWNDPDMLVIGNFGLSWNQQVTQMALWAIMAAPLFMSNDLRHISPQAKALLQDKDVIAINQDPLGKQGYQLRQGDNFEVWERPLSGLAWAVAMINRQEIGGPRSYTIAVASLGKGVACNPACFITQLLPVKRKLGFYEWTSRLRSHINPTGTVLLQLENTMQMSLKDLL
An asterisk follows results filed as active; ? = inconclusive; . = not tested or not shown; & = joins results of further samples. This is a subset. The share of hits here may be higher or lower than overall.

compound | miR-21 FLuc | Rango complex inh | Rango release inh | GLA inh pH 4.5
Cc1cc2cc(C=C(C#N)C#N)c(Cl)nc2cc1C | -63% | ? | ? | -6
CCCCNC(NCCCC)=C(S(=O)(=O)CC)S(=O)(=O)CC | 1% | -4.2% | 19% | 1
COCCSc1ccccc1C(=O)N1CCc2ccccc2C1 | -1% | -1.6% | -19% | 7
COc1ccc(/C=C/c2nnc(NC(=O)C(C)(C)C)s2)cc1 | -24% | 1.1% | -16% | 18
COc1ccc(CC(=O)NCc2csc(-c3cccs3)n2)cc1OC | 0% | -1.3% | 1% | -1
COc1ccc(C2SCC(=O)N2c2ccc(F)cc2)cc1 (stereo not given) | 0% | -0.7% | 9% | .
Cc1[nH]c2ccccc2c1/C=C(\C#N)C(=O)NC1CC1 | -48% | -4.2% | -9% | .
CC(=O)Nc1ccc2c(c1)-c1ccc(F)cc1C2=O | . | -0.1% | -2% | .
CCOc1cccc2cc(C(=O)N3CCN(C/C=C/c4ccccc4)CC3)c(=O)oc12 | -15% | ? | ? | -1
O=C(COc1ccc(S(=O)(=O)N2CCOCC2)cc1)N1CCCCCC1 | 0% | 3.9% | ? | -1
C=C(C(=O)O)C1CCC2(C)CCCC(C)(O)C2C1 (stereo not given) | -2% | 4.6% | 10% | 3
COCCCNC(=O)c1ccc(OC)c(OC2CCN(C(C)C)CC2)c1 | 2% | -0.4% | ? | .
CCN(C(=O)COC(=O)/C=C/c1ccccc1Cl)c1c(N)n(Cc2ccccc2)c(=O)[nH]c1=O | . | 3.2% | 0% | .
COc1ccc(C2C=C(Nc3ccccc3)C(=O)N2c2ccccc2)cc1OC (stereo not given) | -54% | -6.3% | 2% | 1
C[N+](C)(C)CCOC(N)=O | . | -0.3% | 1% | -4&3&1
O=C(Nc1ccc(S(=O)(=O)N2CCCC2)cc1)c1cnccn1 | -3% | -1.7% | 13% | -8
Clc1ncnc2scc(-c3ccccc3)c12 | 7% | 0.3% | 0% | 6
CCOC(=O)C(Cc1ccccc1)C(=O)NCc1cccnc1 (stereo not given) | -4% | -0.7% | 23% | .
O=C(COc1cccnc1[N+](=O)[O-])Nc1cccc(Br)c1 | . | -0.2% | 8% | .
CNC(=S)N/N=C(\C)c1ccc(-n2ccnc2)cc1 | -8% | -0.9% | 0% | 3
[O-]/C(=C(\C(=S)Nc1cccc2ccccc12)[n+]1ccccc1)c1cccs1 | -9% | -2.3% | 0% | -9
Cc1cccc(Cn2ccc(NC(=O)c3cccnc3)n2)c1 | -16% | 0.2% | -6% | -3
O=C(Cn1c(=O)oc2cc(S(=O)(=O)N3CCCC3)ccc21)NCc1ccc(F)cc1 | 21%&10% | -0.1% | -5% | -4
Cc1nc(-c2ccccc2)sc1C1(C)CC(c2c(Cl)cccc2Cl)=NO1 (stereo not given) | 7% | -0.2% | -11% | -4

2 records drawn at random from those above, as already listed:
compound | miR-21 FLuc | Rango complex inh | Rango release inh | GLA inh pH 4.5
Cc1nc(-c2ccccc2)sc1C1(C)CC(c2c(Cl)cccc2Cl)=NO1 (stereo not given) | 7% | -0.2% | -11% | -4
Cc1cccc(Cn2ccc(NC(=O)c3cccnc3)n2)c1 | -16% | 0.2% | -6% | -3

Next section:
compound | miR-21 FLuc | Rango complex inh | Rango release inh | GLA inh pH 4.5
N#CCc1ccc(NC(=O)CSc2nnc(C3CC3)n2C2CC2)cc1 | . | -2.7% | -22% | .
O=C(CCN1C(=O)C2C3C=CC(C3)C2C1=O)N1CCN(c2ccccc2F)CC1 (stereo not given) | -5% | -0.4% | 3% | -18
CN(CC(=O)Nc1cccc(F)c1)C(=O)c1ccc(COc2ccccc2)cc1 | . | 4.2% | 4% | .
CCN1C(c2ccccc2)=C(c2ccccc2)S/C1=C/C=C1\SC(=S)N(C)C1=O | -1% | -1.9% | 11% | 3
CN(C)Cc1c(O)ccc2c(=O)c(-c3ccccc3)c(C(F)(F)F)oc12 | 5% | 4.9% | -12% | .
CCN(Cc1cc2cc(OC)ccc2[nH]c1=O)C(=O)Cc1ccc(OC)cc1 | -5% | 2.8% | ? | -1
CCOC(=O)NC(=O)/C(C#N)=N\Nc1cccc(OC)c1 | -8% | -2.3% | -7% | 0
Cc1cccc(NC(=O)C2CC3CCC2C3)c1C (stereo not given) | . | -0.4% | -6% | .
CCC(C(=O)Nc1ccc(C)cc1)c1ccccc1 (stereo not given) | -3% | 5.1% | 38% | -8
CCOc1ccc(-c2nc(-c3cccs3)c(CC(=O)O)s2)cc1OC | -57% | ? | 2% | -3
COc1cc(OC)c(OC)cc1CNC(=O)c1ccc(S(=O)(=O)N2CCCCC2)cc1 | . | -2.3% | 4% | .
CC(=O)c1cn(CC(=O)Nc2ccc(C)c(C)c2)c2ccccc12 | 12% | -1.4% | 14% | -7
CCOC(=O)c1nnn(-c2nonc2N)c1-c1ccc(C)cc1 | -6% | -1.1% | 0% | -3
COC(CNC(=O)c1cc(S(=O)(=O)N2CCc3ccccc32)ccc1F)OC | -3% | -3.7% | 13% | .
CC(C)c1ccc(/C=C2\SC(=S)N(CCC(=O)N3CCCCC3CCO)C2=O)cc1 (stereo not given) | ? | 0.0% | 1% | .
COc1cc(-c2noc(CCC(=O)Nc3cccnc3)n2)cc(OC)c1OC | -3% | 2.6% | -5% | 3
O=C(C1CCCO1)N1CCN(C(=S)Nc2ccc(F)cc2)CC1 (stereo not given) | 0% | -0.7% | 0% | -10
O=C(CC1SC(N2CCCCC2)=NC1=O)Nc1cccc(C(=O)O)c1 (stereo not given) | -1% | 1.6% | -13% | 1
O=C(CSC1=NCCS1)Nc1cccc2ccccc12 | 2% | -1.6% | 0% | -3
CCOC(=O)C(C#N)C(Cc1ccccc1)c1ccco1 (stereo not given) | -4% | ? | -12% | 0
O=C1/C(=C\c2ccncc2)CCc2ccccc21 | . | -1.6% | -6% | .
O=C(CSc1nnc(-c2ccccn2)n1-c1ccccc1)Nc1ccc2c(c1)OCO2 | -8% | -0.5% | -8% | 10
CCOc1cc(N2CCOCC2)c(OCC)cc1NC(=O)COC(=O)c1ccc([N+](=O)[O-])o1 | . | ? | -4% | .
CCOc1ccc2nc(Cl)c(C3CC(c4ccco4)=NN3S(C)(=O)=O)cc2c1 (stereo not given) | -16% | 0.4% | -12% | 2
CC[C@@H]1C/C=C\Cc2ccccc2[C@H](C(=O)C[C@@H](O)CC(C)=O)OC1=O | . | 1.5% | -8% | .
CN(C)c1ccc(C(=O)N2CCCC2)cc1 | -8% | 1.6% | 8% | -8
CCCOC(=O)c1ccc(NS(=O)(=O)c2cccs2)cc1 | -11% | -5.9% | -3% | -1
Cc1ccc(CNC(=O)c2nnn(CC(=O)Nc3cc(C)cc(C)c3)c2N)cc1 | -2% | 2.3% | -9% | .
Cn1c(=O)[nH]c(=O)c2c1nc(N1CCCC1)n2CCCSc1nnnn1-c1ccccc1 | 4% | -0.2% | -7% | 3
CN(C)c1ccc(/C=C/C(=O)c2ccccc2O)cc1 | -68% | 0.7% | -4% | -9
CCCCOC(=O)CSc1nnc(-c2cc(OC)c(OC)c(OC)c2)o1 | -2% | -2.7% | 10% | 9
O=C(Nc1ccc(Br)cn1)c1ccc(Br)s1 | -6% | -0.5% | -22% | .
Cn1c(=O)c2c(SCC(=O)NC3CCCC3)nc(CC(C)(C)C)nc2n(C)c1=O | 0% | -0.7% | -6% | .
O=C(Cc1ccc(Br)cc1)Nc1ccc(Cl)cc1 | -12% | -2.6% | 6% | 7
COc1ccc(N2CC(C(=O)N3CCN(S(=O)(=O)c4ccc(F)c(F)c4)CC3)CC2=O)c(OC)c1 (stereo not given) | . | -2.0% | -11% | .
COc1ccccc1C(=O)Nc1ccc(S(=O)(=O)N2CCc3ccccc32)cc1 | 0% | -1.5% | 11% | -1
CN(CC(=O)Nc1cccnc1)S(=O)(=O)c1ccccc1 | -1% | 2.3% | 0% | 6
O=C(N/N=C/c1cc([N+](=O)[O-])ccc1O)c1ccncc1 | 21% | -5.7% | -9% | -1
O=C(CCC(=O)OCC(F)(F)C(F)F)NCc1ccccc1 | -5% | -5.7% | 13% | -4
CC(=O)c1sc(NC(=O)C=C(C)C)nc1C | -39% | 1.1% | 11% | -10
CCn1nc(NC(=O)COC)c2cc3cc(C)ccc3nc21 | -25% | -0.2% | -8% | .
Cc1ccc(N(Cc2ccc([N+](=O)[O-])cc2)C(=O)c2ccco2)cc1C | -3% | -0.9% | -8% | -15
COC(=O)c1ccc2nc(NC(=O)C(C)C)sc2c1 | -8% | 5.3% | 9% | 3
COc1ccccc1C(=O)Oc1ccc2c(c1)O/C(=C\c1ccncc1)C2=O | -5% | ? | ? | .
O=C(Nc1cc(F)cc(F)c1)c1ccc(NCCc2ccccc2)c([N+](=O)[O-])c1 | -11% | 11% | -3% | 4
CCc1ccc(NS(=O)(=O)c2ccc3c(c2)oc(=O)n3C)cc1 | 4% | 1.0% | -9% | .
Cc1ccc(N(CC(=O)NN=C2CCN(C)CC2)S(=O)(=O)c2ccccc2)c(C)c1 | -3% | -1.5% | 5% | -8
CCOC(=O)c1[nH]c2c(c1-c1ccc(OC)cc1)C(=O)CC(c1ccc(OC)c(OC)c1)C2 (stereo not given) | 0% | -2.8% | -18% | -16
Cc1nc2c(ccc3nc(NC(=O)c4ccc(S(=O)(=O)N(C)C)cc4)sc32)s1 | -5% | 0.3% | -4% | 2
C[C@@H]1CC=C[C@H]2[C@H]1C(=O)N(Cc1ccccc1)[C@H]2c1ccc(-c2ccc(N(C)C)cc2)cc1F | 2% | 5.1% | 2% | -8
Fc1cccc(Cl)c1CSC1=NCCS1 | -9% | 4.2% | -4% | .
COCCCn1c(SCC(=O)Nc2ccc(C)cc2)nc2ccccc2c1=O | -40% | -2.5% | 21% | -16
CCCNC(=O)NC(=O)COc1c(F)c(F)cc(F)c1F | -4% | -0.6% | ? | -5
Cc1ccc(CNC(=O)CCS(=O)(=O)c2ccc3c(c2)oc(=O)n3C)cc1 | -1% | 0.3% | -3% | .
Cc1cc(N/N=C/c2ccccc2O)nc(-c2ccccc2O)n1 | 8% | 2.5% | 12% | -2
Cc1cc(Br)c(NC(=O)c2c(-c3c(Cl)cccc3Cl)noc2C)c(Br)c1 | -3% | 6.4% | -11% | -4
C/C(N)=C(/C#N)C(=O)CSc1nnc(Nc2c(C)cccc2C)s1 | -6% | ? | -13%&-3% | 2
O=C(NC1=NCCS1)c1ccc(Cl)c(S(=O)(=O)N2CCc3ccccc32)c1 | 9% | 1.6% | 4% | -8
CN(C)c1ccc(NC(=O)C(=O)C2C(=O)Nc3ccccc32)cc1 (stereo not given) | 0% | 2.7% | 1% | 1
CC(C)C(=O)NC(=S)Nc1ccccc1N1CCN(C(=O)c2ccccc2)CC1 | -2% | -4.3% | 6% | 6

(list continues)
compound | miR-21 FLuc | Rango complex inh | Rango release inh | GLA inh pH 4.5
O=C(CCNC(=O)c1ccccc1)Nc1ccc(Cl)c(S(=O)(=O)N2CCCCC2)c1 | . | 0.2% | 1% | .
CCOc1ccc(C(=O)N/N=C/c2c(C)[nH]c(=O)[nH]c2=O)cc1 | -5% | . | . | -4
COCc1ccc(C(=O)NCC2(N3CCCCC3)CCCCC2)cc1 | 0% | -1.6% | -1% | .
O=C(O)Cc1c(C(=O)O)[nH]c2ccc(C(=O)O)cc12 | -2% | -2.9% | -2% | 6
CSc1ccc(Cl)c(C(=O)OCC(=O)N2CC(C)OC(C)C2)c1 (stereo not given) | 0% | 0.1% | -6% | -28
NC(=O)CCc1nc2cc(C(F)(F)F)ccc2n(Cc2ccccc2)c1=O | -9% | 0.3% | -3% | .
COc1ccc(C(=O)Nc2ccccn2)cc1 | -3% | 1.3% | 1% | 2
CCn1c(C)nc2cc(-c3nc4n(n3)Cc3ccccc3-4)ccc21 | ? | -0.9% | 1% | 7
CCOc1ccc(S(=O)(=O)NCc2cccnc2)cc1NC(=O)c1ccccc1F | 9% | -0.4% | -10% | .
COCCCNc1nc2ccccc2nc1NS(=O)(=O)c1ccc(C)c(C)c1 | 0% | 1.6% | 6% | 4
Cc1ccc(O)c(-c2cc(C(=O)NCc3ccncc3)[nH]n2)c1 | -8% | -2.4% | 3% | -3
